Assay outcomes deposited in PubChem BioAssay by National Center for Advancing Translational Sciences (NCATS).
D2 ag – Beta-Arrestin HTS for Positive Allosteric Modulators of the Human D2 Dopamine Receptor: Agonists | DiscoveRx PathHunter D2 beta-arrestin, luminescence, 90 min; 100% = 57 uM dopamine signal | D(2) dopamine receptor (Homo sapiens), P14416 | activation, % (test concentration not listed) | 360,000 compounds, 0.084% hits; in the data active = activation above about 40%; inconclusive = about 15% to 40%; inactive = below about 15%; also: compound concentration not given in the record; the text of the record calls up to 30% inactive
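DiscoveRx PathHunter D2 beta-arrestin cells (2,100/well) attached overnight, then compound-stimulated 90 min at 37 C in HBSS/10 mM HEPES/0.1% Tween-20 buffer; beta-galactosidase complementation read by luminescence after 1 h at ambient temperature. Dopamine 57 uM final (EC100) as control.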
gsp ag – qHTS for Agonist of gsp, the Etiologic Mutation Responsible for Fibrous Dysplasia/McCune-Albright Syndrome: qHTS. AID 624287, 2012. 340,000 compounds, 0.13% hits. gsp mutant cells, cAMP HTRF, 30 min; control for the full effect not named in the record. Potency, µM (doses to about 76.9 µM), for the others: top-dose activation (cAMP increase), most hits filed as activators; active = well fitted activation curve with a large enough effect; inconclusive = small, poorly fitted or top-dose-only effect, or another doubt; inactive = no such curve, though single readings can be large or run the other way; cell line not stated here;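 also: phosphodiesterase inhibitor Ro 20-1724 added with compounds to block cAMP breakdown; potency is read from the fitted curve at half-maximal effect; nearly all actives have a fitted effect of over 60% in size; about a fifth of the inactives were tested at one dose only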
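Cells stably selected in G418 were plated at 2000/well, grown 16-24 hr, then given compounds in DMSO with the PDE inhibitor […] (300 uM solution added) for 30 min at 37C; cAMP was read by HTRF.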
CtBP-E1A blk – qHTS Assay for Inhibitors of the CtBP/E1A Interaction; 340,000 compounds, 0.49% hits; CtBP / adenovirus E1A interaction (AlphaScreen); AID 651724, 2012; activity change, % (test concentration not listed); AlphaScreen GST-E1A/His-CtBP binding, 1536-well; stronger effect = lower value; control for the full effect not named in the record; in the data active means activity change below about -65%; inconclusive means about -30% to -65%; inactive means above about -30%; also: % is scaled to controls: 0 for no effect and ±100 for the full control effect
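Homogeneous bead-based format: GST-tagged E1A captured on glutathione donor beads, His-tagged CtBP on nickel acceptor beads; compounds precede bead addition by 2 h at 37 °C.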
D2 PAM – Beta-Arrestin HTS for Positive Allosteric Modulators of the Human D2 Dopamine Receptor: Potentiators | D(2) dopamine receptor (Homo sapiens), P14416 | DiscoveRx D2 beta-arrestin cells, luminescence, 90 min; 100% = 57 uM dopamine signal | potentiation, % (test concentration not listed) | 360,000 compounds, 0.23% hits | AID 624464, 2012; active = potentiation of 50% or more; inconclusive = 30% to 50%; inactive = 30% or less;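 also: compound concentration not given in the record; tested on top of an EC20 dose of dopamine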
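PathHunter beta-arrestin assay in DiscoveRx D2 cells. Compounds were added with an EC20 of dopamine (50 nM final) for 90 min at 37 deg C. Luminescence was read 1 h after detection reagent, with 57 uM dopamine as the EC100 control.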
Six1-Eya2 blk – qHTS Assay for Inhibitors of the Six1/Eya2 Interaction. Homeobox protein SIX1 (Homo sapiens) + Protein phosphatase EYA2 (Homo sapiens), …. AlphaScreen GST-Six1/His-Eya2 binding, biochemical; stronger effect = lower value; control for the full effect not named in the record. activity change, % (concentration not given with the values). 360,000 compounds, 0.56% hits; in the data active = activity change below about -65%; inconclusive = about -30% to -65%; inactive = above about -30%; also: % is scaled to controls: 0 for no effect and ±100 for the full control effect
Target sequence (O00167 whole entry, looked up): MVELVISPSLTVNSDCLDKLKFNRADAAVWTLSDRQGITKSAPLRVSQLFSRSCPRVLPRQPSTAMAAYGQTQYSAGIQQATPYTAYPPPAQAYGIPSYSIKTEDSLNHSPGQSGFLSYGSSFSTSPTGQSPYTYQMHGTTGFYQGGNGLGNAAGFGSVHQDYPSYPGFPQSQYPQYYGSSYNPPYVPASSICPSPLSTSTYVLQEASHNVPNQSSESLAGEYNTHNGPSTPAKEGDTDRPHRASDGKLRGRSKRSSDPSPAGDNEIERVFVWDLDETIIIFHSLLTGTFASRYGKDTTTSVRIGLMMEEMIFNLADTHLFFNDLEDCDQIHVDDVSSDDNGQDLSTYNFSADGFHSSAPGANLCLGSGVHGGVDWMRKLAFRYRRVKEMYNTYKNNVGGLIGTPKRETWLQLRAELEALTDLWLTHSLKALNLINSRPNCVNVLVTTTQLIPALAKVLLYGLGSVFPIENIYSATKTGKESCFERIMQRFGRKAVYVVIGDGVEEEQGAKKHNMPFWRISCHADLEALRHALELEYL
Target sequence (Q15475 whole entry, looked up): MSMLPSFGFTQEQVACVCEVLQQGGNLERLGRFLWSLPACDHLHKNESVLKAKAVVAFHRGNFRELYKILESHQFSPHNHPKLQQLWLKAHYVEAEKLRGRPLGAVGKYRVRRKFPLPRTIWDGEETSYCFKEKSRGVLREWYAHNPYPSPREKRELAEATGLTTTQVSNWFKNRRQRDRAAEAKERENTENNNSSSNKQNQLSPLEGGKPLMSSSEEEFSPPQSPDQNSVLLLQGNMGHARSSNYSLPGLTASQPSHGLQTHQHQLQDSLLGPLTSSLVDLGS
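GST-Six1 + His-Eya2 (5X stock: 250/500 nM); Tris pH 8.0, 300 mM NaCl, 0.05% BSA, 0.02% Tween 20; GSH donor/Ni acceptor beads; 1 h 37 °C dark; AlphaScreen readout.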
gsp antag – qHTS for Antagonists of gsp, the Etiologic Mutation Responsible for Fibrous Dysplasia/McCune-Albright Syndrome: qHTS; gsp-mutant cells, cAMP HTRF, 30 min; control for the full effect not named in the record; Potency, µM (top dose mostly 76.9 µM), for inactives: at the top dose activity change, negative = inhibition, actives largely listed as inhibitors; 340,000 compounds, 0.4% hits; AID 624288, 2012; active = falling curve of any shape with a large fitted effect; inconclusive = falling curve, mostly with a smaller effect; inactive = flat or rising curve; cell line not stated here;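 also: intracellular cAMP measured with PDE inhibitor Ro 20-1724 present during compound exposure; potency is read from the fitted curve at half-maximal effect; % is scaled to controls: 0 for no effect and ±100 for the full control effect; nearly all actives have a fitted effect of over 65% in size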
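HTRF cAMP measurement after 30 min RT detection following 30 min, 37C compound treatment alongside […] (added as 300 uM solution) in G418-selected cells seeded at 2000/well and grown 16–24 h.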
Starred values were filed as active, the others as inactive; u = inconclusive; x = not tested or not shown; [ ] = remark or other dose.

Results follow in this order: D2 ag	gsp ag	CtBP-E1A blk	D2 PAM	Six1-Eya2 blk	gsp antag
CSc1nc2c(c(=O)[nH]c(=O)n2C)n1Cc1ccccc1
 : 4.7	-10%[15.4 µM]	4	0	-9	20%
O=C(c1cncc(Br)c1)N1CCN(S(=O)(=O)c2ccc(Cl)cc2)CC1
 : 1.4	-2%	5	-2	6	-1%
CCn1c(COc2ccc(C)cc2)nnc1SCC(=O)Nc1cc(OC)ccc1OC
 : 4.2	7%	-6	-7	0	-15%
C/C(=N\NC(N)=O)c1ccccc1Cl
 : -4.0	u	-6	-5	0	9%
S=C(NCc1cccnc1)NCc1cccnc1
 : 2.3	-14%[15.4 µM]	-1	-3	0	7%
CC(C)[C@H](NC(=O)NC1CCCC1)C(=O)O
 : -3.7	11%	-6	3	11	-3%
O=C1c2ccccc2-c2ccccc2NC1O (stereo not given)
 : -1.1	u	1	-5	-1	x
CC(=O)NC(Cc1ccc(F)cc1)C(=O)N1CCN(C(=O)NCc2ccccc2)CC1 (stereo not given)
 : -2.3	1%	2	-11	4	2%
CC(=O)NC1CCCc2c1cnn2-c1ccc(C(C)(C)C)cc1 (stereo not given)
 : 0.7	6%[15.4 µM]	6	-15	6	-20%
O=C(COCc1cc(-c2ccc3c(c2)OCO3)on1)N1CCN(c2cccc(C(F)(F)F)c2)CC1
 : -3.3	28%	-11	-33	-2	-2%
CC1(C)CC(=O)C=C(Nc2ccc3c(c2)CCC3)C1
 : 2.5	5%	x	-9	7	-5%
COc1ccc(C2(C)ON(c3ccccc3C(F)(F)F)C2=O)cc1 (stereo not given)
 : -0.1	x	-17	-10	-4	6%
N#Cc1ccc(OCC(=O)N/N=C2\CCc3ccccc32)cc1
 : -0.2	-18%	-3	-31	1	-4%
CCOC(=O)c1ccc(NC(=S)N(CCN(C)C)Cc2cccs2)cc1
 : -1.7	0%[15.4 µM]	-22	-6	-4	-5%
C[C@@H]1CN([C@@H](C)CO)C(=O)CCCn2nncc2CO[C@H]1CN(C)S(=O)(=O)c1ccc(F)cc1
 : -3.4	1%	-1	-4	-2	x

Other records follow:
Results follow in this order: D2 ag	gsp ag	CtBP-E1A blk	D2 PAM	Six1-Eya2 blk	gsp antag
CCOc1ccc(NC(=O)CSc2nc(C)c3c(c2C#N)CCCC3)cc1
 : -2.4	5%	-1	-1	1	0%
COc1ccc(S(=O)(=O)N(CC(=O)N2CCN(C)CC2)C2CCCCC2)cc1OC
 : -0.5	-14%	2	-4	-1	6%
CCOC(=O)CN1C(=O)CSc2ccc(S(=O)(=O)N3CCCC3)cc21
 : -2.4	-30%[15.4 µM]	8	1	6	1%
CC(=O)Nc1ccc(S(=O)(=O)Nc2cccc(-n3c(C)nc4ccccc4c3=O)c2)cc1
 : 0.1	5%	-1	-13	2	5%
Cc1c(C(=O)O)sc2nc(CSc3nnc(-c4ccc(F)cc4)n3C)[nH]c(=O)c12
 : -2.0	-20%[15.4 µM]	6	12	0	2%
COc1ccc(C2=Nc3ccccc3NC(=O)C2N(CCc2cc(OC)cc(OC)c2)C(C)=O)cc1 (stereo not given)
 : -0.8	x	0	-3	-6	x
CNC(=O)c1[nH]cnc1C(=O)Nc1ccccc1C
 : -1.9	-39%	-4	-12	-6	12%
Cc1ccccc1C(=O)Oc1ccc(Br)cc1C(=S)N1CCCC1
 : -3.8	3%	0	-20	-9	-11%
Oc1ccc(Br)cc1C=Nc1cccn2cc(-c3ccccc3)nc12
 : 13	u	-1	13	-12	u
O=C(CSc1nc(O)c(Cc2ccccc2)c(=O)[nH]1)Nc1ccccc1
 : -1.4	-17%	4	-16	-1	6%
COc1ccc(-n2c(SCC(=O)Nc3cc(C)on3)nc3ccc(O)cc3c2=O)cc1OC
 : 1.4	-11%	-8	9	-5	-8%
CCc1ccc(NC(=O)C(=O)N/N=C(\C)CC(=O)NCCOC)cc1
 : -0.5	-21%	8	-3	-2	9%
COc1ccc(C(=O)C2=NN(C(C)=O)CC2c2ccco2)cc1 (stereo not given)
 : -6.1	11%[15.4 µM]	1	-11	-3	0%
CS(=O)(=O)N(CC(=O)Nc1ccccc1C(=O)N1CCCC1)c1ccc2c(c1)OCO2
 : -1.3	-8%[15.4 µM]	4	-6	6	7%
COc1ccc(/C=N/Nc2ncnc3scc(-c4ccccc4)c23)cc1OC
 : 2.7	-1%	-20	-1	-12	-9%

Later entries:
Results follow in this order: D2 ag	gsp ag	CtBP-E1A blk	D2 PAM	Six1-Eya2 blk	gsp antag
C(=C\c1ccccc1)/CSc1nc2ncccc2[nH]1
 : 1.2	-3%[15.4 µM]	8	-8	-6	-3%
COc1ccc(-c2c(C#N)c(N)nc3c2CCCCCC3)cc1OC
 : -1.6	0%	9	-14	2	-3%
CC1=C(C(N)=O)C(c2ccc(Cl)cc2)n2nc(CCCO)nc2N1 (stereo not given)
 : 6.9	17%	0	-2	4	2%
O=C(Cc1ccccc1)Nc1cccc([N+](=O)[O-])c1
 : -6.6	u	5	-2	0	1%
Cc1cc(-c2n[nH]c(=S)n2-c2ccc(F)cc2)nn1C
 : -4.2	u	0	-5	10	-12%
Cc1c(C(=O)O)c(-c2ccccc2)nn1-c1ccccc1
 : 0.9	31%	-2	-3	-3	-1%
COc1ccc(-c2noc(CN(C(=O)c3ccc4c(c3)OCO4)C(C)C)n2)cc1
 : -2.7	-12%[15.4 µM]	-3	-1	0	-9%
CC1CC(=O)C2=C(C1)Nc1nc3ccccc3n1C2c1cccnc1 (stereo not given)
 : -3.7	8%[15.4 µM]	-11	-4	-16	-2%
COc1nc2ccc(C)cc2cc1-c1noc(-c2ccccc2)n1
 : 1.9	u	7	4	7	-1%
Cn1c(CCN2CCCCCC2)nc2cc(NC(=O)Nc3ccccc3)ccc21
 : -0.8	-20%	-6	-24	0	3%
CC(NS(=O)(=O)OCC(Cl)(Cl)Cl)c1ccc(C(C)(C)C)cc1 (stereo not given)
 : 1.2	x	7	-4	6	-8%
CCOCCCNC(=O)c1ccc(N2CCCC2)c(NS(=O)(=O)c2ccc(C)cc2)c1
 : -0.3	-2%	x	-16	-1	-12%
C=CCOc1ccc(/C=C/C(=O)OCC(=O)Nc2c(C)n(C)n(-c3ccccc3)c2=O)cc1
 : -0.4	15%[15.4 µM]	7	-3	0	3%
O=C(CCN1C(=O)C2CC=C(Cl)CC2C1=O)Nc1ccccc1O (stereo not given)
 : -3.0	u	-3	-3	3	-1%
Cc1ccc(S(=O)(=O)Nc2cccc(NC(=O)CN3CCCCC3)c2)cc1
 : -1.1	u	0	-7	9	-3%

Continued:
Results follow in this order: D2 ag	gsp ag	CtBP-E1A blk	D2 PAM	Six1-Eya2 blk	gsp antag
O=C(NCC(c1cccnc1)N1CCN(c2ccccc2F)CC1)C1CCCCC1 (stereo not given)
 : -0.8	1%	-1	-16	-5	4%
COC(=O)c1ccc(CSc2nc3ccc(C)cc3[nH]2)o1
 : -5.3	33%	-1	-3	1	-11%
O=C(Cn1cnc2ccccc2c1=O)Nc1ccc2c(c1)OCO2
 : 0.1	-1%	0	-18	1	10%
CC(=O)N1CCc2cc(S(=O)(=O)NC3CCCCC3)ccc21
 : 2.2	-51%[inhibitor]	-1	0	16	2%
Cc1cc(C)c2[nH]c(C)c(CN3CCCCCC3)c(=O)c2c1
 : -6.9	3%	x	-14	21	9%
O=C(COC(=O)CCOc1ccccc1)Nc1ccc(Cl)cn1
 : 0.4	-2%	4	0	12	1%
CSCCCNC(=S)Nc1cccc(S(=O)(=O)NC2=NCCC2)c1
 : 1.4	3%[15.4 µM]	7	-1	-1	9%
COc1cc2[nH]c(=S)nc(NCC3CCCO3)c2cc1OC (stereo not given)
 : -1.2	u	-87*	-7	-90*	18%
O=S(=O)(NCC1OCCc2ccccc21)c1ccc(S(=O)(=O)N2CCOCC2)cc1 (stereo not given)
 : -1.7	-1%	-2	-8	-2	1%
CCc1ccccc1Nc1nc(N)nc(COC(=O)CCC(=O)c2ccc(F)cc2)n1
 : -5.6	-14%[15.4 µM]	4	4	-1	5%
O=C(N/N=C/c1ccc(N2CCOCC2)cc1)C1COc2ccccc2O1 (stereo not given)
 : -6.2	-8%	1	-5	-5	-5%
CCCc1ccc(OCc2ccc(C(=O)OC)o2)c(OC)c1
 : 1.1	1%	17	-7	16	-11%
CCCCn1nc(C(=O)N(C)CC(=O)Nc2cccc(F)c2)c2ccccc2c1=O
 : -7.1	u	19	-11	-4	-8%
O=C(Nc1cc(C(F)(F)F)ccc1-n1cncn1)c1ccc(Cl)cc1
 : -2.8	-3%	4	-10	6	11%
COc1ccc(/C=N/Nc2ccccn2)c(OC)c1OC
 : -2.4	-10%[15.4 µM]	-8	-6	-7	8%

Next section:
Results follow in this order: D2 ag	gsp ag	CtBP-E1A blk	D2 PAM	Six1-Eya2 blk	gsp antag
O=C(Nc1cccc(Cl)c1)c1cc2c(=O)n3ccccc3nc2s1
 : 5.4	u	5	6	3	-6%
CCOC(=O)c1cccc(NC(=O)/C=C/c2ccc([N+](=O)[O-])cc2)c1
 : 0.5	14%	-6	21	-11	-17%
CN(C)CCCNCCCNC(=O)/C(=N\O)c1ccccc1
 : -12	3%[15.4 µM]	-3	-1	1	11%
CCOC(=O)Cn1c(C)c(Br)c(=O)c2cccc(C)c21
 : -2.5	-13%	47	-27	46	-3%
CC1CCCC(C)N1C(=O)COC(=O)Cc1ccc(F)cc1 (stereo not given)
 : -0.8	16%	-6	-9	4	9%

Structures listed so far shown as hits in CtBP-E1A blk.
compound	D2 ag	gsp ag	CtBP-E1A blk	D2 PAM	Six1-Eya2 blk
COc1cc2[nH]c(=S)nc(NCC3CCCO3)c2cc1OC (stereo not given)	-1.2	u	-87*	-7	-90*

Rows were taken by chance. Share with any hit: about 1.4%.
